Bioassay records from PubChem BioAssay.
FGF22 binding = binders of human FGF22 protein, primary screen, FGF22 synaptogenesis inhibitor project, biophysical, thermal shift, single point; hit rate 1.5% among 340,000; recombinant FGF22 thermal shift, SYPRO orange fluorescence; percent of sucrose octasulfate shift, DMSO zero; calls only at 9.99 µM; Fibroblast growth factor 22 (Homo sapiens), Q9HCT0; AID 651658, 2012;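 active means melting point raised past a set limit in the mean and every replicate; three in four hits are not shown here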
Target sequence (Q9HCT0 whole entry, looked up): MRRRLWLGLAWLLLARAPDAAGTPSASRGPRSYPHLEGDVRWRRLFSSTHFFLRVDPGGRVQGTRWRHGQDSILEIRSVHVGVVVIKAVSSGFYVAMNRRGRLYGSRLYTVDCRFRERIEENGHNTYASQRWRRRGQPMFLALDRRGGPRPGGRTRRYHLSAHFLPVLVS
Calls only; i = inactive.

SMILES | FGF22 binding
CCCNC(=O)[C@H]1[C@H](CO)[C@H]2Cn3c(ccc(C4=CCCC4)c3=O)[C@H]2N1C(=O)CC1CC1 | i
COCc1cn(CC[C@@H]2CC[C@H](NC(=O)Cc3cccnc3)[C@@H](CO)O2)nn1 | i
C[C@@H]1CCCCO[C@@H](CN(C)C(=O)Nc2ccc(F)cc2)[C@@H](C)CN([C@H](C)CO)C(=O)c2cc(NC(=O)CCCCCC(=O)Nc3ccccc3N)ccc2O1 | i
CC(=O)N(C)C[C@@H]1Oc2cc(C#CC3CCCCC3)ccc2S(=O)(=O)N([C@H](C)CO)C[C@H]1C | i
C[C@@H]1CN([C@@H](C)CO)C(=O)c2cc(-c3ccncc3)cnc2O[C@@H]1CN(C)C(=O)C1CCOCC1 | i
CC(C)NC(=O)N(C)C[C@H]1OCCCC[C@@H](C)Oc2ccc(NC(=O)c3ccccc3)cc2C(=O)N([C@H](C)CO)C[C@@H]1C | i
COc1ccccc1-c1ccc([C@H]2[C@@H](CO)N(C(=O)C3CC3)[C@H]2C#N)cc1 | i
C/C=C/c1cccc(-c2nc(C(=O)NCc3ccncc3)cc3c2[C@H](CCO)N([S@@](=O)C(C)(C)C)C3)c1 | i
C[C@@H]1CN([C@H](C)CO)C(=O)Cc2cc(NC(=O)Cc3ccccc3)ccc2O[C@@H]1CN(C)S(=O)(=O)c1cn(C)cn1 | i
C[C@@H]1CN([C@H](C)CO)C(=O)c2cc(NC(=O)Nc3ccc4c(c3)OCO4)ccc2O[C@@H]1CN(C)C(=O)Nc1cccc2ccccc12 | i
CCC(=O)N(C)C[C@@H]1[C@H](c2ccc(-c3ccccc3F)cc2)[C@H](CO)N1C(C)=O | i
C[C@@H]1CN([C@@H](C)CO)C(=O)c2cc(-c3cccc(C#N)c3)cnc2O[C@H]1CN(C)C(=O)C1CCCCC1 | i
O=C(C[C@H]1CC[C@H]2NC[C@H](O)COC[C@@H]2O1)Nc1ccc(-c2ccccc2)cc1 | i
CC(C)NC(=O)Nc1ccc2c(c1)CC(=O)N([C@H](C)CO)C[C@@H](C)[C@@H](CN(C)Cc1ccc(-c3ccccc3)cc1)O2 | i
Cc1ccc(S(=O)(=O)N(C)C[C@H]2OCCCC[C@@H](C)Oc3ccc(NS(=O)(=O)c4c(C)noc4C)cc3C(=O)N([C@@H](C)CO)C[C@@H]2C)cc1 | i
COc1ccc(CN(C)C[C@H]2Oc3c(NC(=O)Nc4ccccc4)cccc3C(=O)N([C@H](C)CO)C[C@H]2C)cc1 | i
C[C@@H]1CN([C@@H](C)CO)C(=O)c2cc(NC(=O)CCN3CCOCC3)ccc2O[C@H]1CN(C)Cc1ccc(C(=O)Nc2ccccc2N)cc1 | i
C[C@@H]1CN([C@@H](C)CO)C(=O)c2cc(C#Cc3ccc(F)cc3)cnc2O[C@@H]1CN(C)C(=O)Nc1ccc(F)cc1 | i
COCCNC(=O)C[C@@H]1C=C[C@H](NC(=O)NC2CCCCC2)[C@@H](CO)O1 | i
COc1ccc(S(=O)(=O)Nc2ccc3c(c2)C(=O)N([C@@H](C)CO)C[C@@H](C)[C@@H](CN(C)C(=O)NC2CCCCC2)OCCCC[C@H](C)O3)cc1 | i
O=C(C[C@@H]1CC[C@@H](NC(=O)CC2CC2)[C@@H](CO)O1)NCc1ccc(-c2ccccc2)cc1 | i
C[C@@H]1CN([C@H](C)CO)C(=O)c2cc(NC(=O)C3CC3)ccc2O[C@H]1CN(C)S(C)(=O)=O | i
C[C@@H]1CCCCO[C@@H](CN(C)S(=O)(=O)c2ccccc2)[C@@H](C)CN([C@H](C)CO)C(=O)c2cc(NC(=O)CCCN(C)C)ccc2O1 | i
C[C@H]1CN([C@@H](C)CO)C(=O)c2cc(NC(=O)C3CCCCC3)ccc2O[C@H]1CN(C)C(=O)Nc1cccc2ccccc12 | i
CC=Cc1ccc2n(c1=O)C[C@@H]1[C@@H](CO)[C@H](C(=O)NCc3ccc4c(c3)OCO4)[C@H]2N1C(=O)CC (mixture of isomers) | i
SMILES | FGF22 binding
Cc1noc(C)c1NC(=O)N(C)C[C@@H]1Oc2ccc(NS(=O)(=O)c3cccs3)cc2CC(=O)N([C@H](C)CO)C[C@@H]1C | i
COc1ccc(S(=O)(=O)Nc2cccc3c2O[C@H](CN(C)Cc2ccc(-c4ccccc4)cc2)[C@H](C)CN([C@H](C)CO)C3=O)cc1 | i
CCC(=O)N(C)C[C@@H]1Oc2ncc(C#Cc3cccnc3)cc2C(=O)N([C@@H](C)CO)C[C@H]1C | i
O=C(C[C@@H]1CC[C@H](NC(=O)Cc2ccccn2)[C@H](CO)O1)NCCCN1CCOCC1 | i
O=C(C[C@H]1CC[C@@H](NC(=O)NC2CCCC2)[C@@H](CO)O1)NCc1ccc(F)cc1 | i
O=C(Cc1ccccn1)NCC[C@@H]1CC[C@H](NC(=O)c2ccccc2F)[C@H](CO)O1 | i
COc1ccccc1-c1ccc2c(c1)O[C@@H](CN(C)S(=O)(=O)c1ccccc1)[C@@H](C)CN([C@H](C)CO)S2(=O)=O | i
CC(C)(C)[S@@](=O)N1Cc2cc(C(=O)NC3CCCCC3)nc(-c3cccc(Br)c3)c2[C@H]1CCO | i
COc1ccc(S(=O)(=O)N(C)C[C@@H]2Oc3ccc(NS(=O)(=O)c4ccc(C)cc4)cc3C(=O)N([C@@H](C)CO)C[C@@H]2C)cc1 | i
C[C@@H]1CN([C@H](C)CO)C(=O)c2cc(-c3cncnc3)cnc2O[C@@H]1CN(C)Cc1ccc(Oc2ccccc2)cc1 | i
C[C@H]1CN([C@@H](C)CO)C(=O)c2cc(NS(=O)(=O)c3ccc(F)cc3)ccc2O[C@H]1CN(C)S(=O)(=O)c1ccc(Cl)cc1 | i
CCCNC(=O)[C@@H]1[C@@H](CO)[C@@H]2Cn3c(ccc(-c4ccccc4F)c3=O)[C@@H]2N1CCC | i
O=C(C[C@H]1C[C@@H]2c3cc(NC(=O)Nc4ccccc4)ccc3O[C@@H]2[C@@H](CO)O1)NCc1ccncc1 | i
C[C@@H]1CN([C@@H](C)CO)C(=O)c2cc(NC(=O)CCCCCC(=O)Nc3ccccc3N)ccc2O[C@@H](C)CCCCO[C@@H]1CN(C)C(=O)Nc1ccc(C(F)(F)F)cc1 | i
C[C@@H]1CCCCO[C@H](CN(C)C(=O)c2ccncc2)[C@H](C)CN([C@H](C)CO)C(=O)c2cc(NS(=O)(=O)c3ccc(Cl)cc3)ccc2O1 | i
COc1ccc(NC(=O)Nc2ccc3c(c2)CC(=O)N([C@H](C)CO)C[C@H](C)[C@H](CN(C)Cc2ccc(Cl)c(Cl)c2)O3)cc1 | i
C[C@H](CO)N1C[C@H](C)[C@@H](CN(C)CC2CCCCC2)Oc2ccc(NS(=O)(=O)c3cn(C)cn3)cc2C1=O | i
O=C(C[C@H]1C[C@H]2c3cc(NC(=O)c4ccc5c(c4)OCO5)ccc3O[C@H]2[C@@H](CO)O1)NC1CCCC1 | i
O=C(Nc1ccc2c(c1)OCO2)N[C@H]1CC[C@H](CCNC(=O)C2CCOCC2)O[C@H]1CO | i
C[C@H]1CN([C@@H](C)CO)C(=O)c2cc(NC(=O)C3CCCCC3)ccc2O[C@@H]1CN(C)S(=O)(=O)c1cn(C)cn1 | i
O=C(N[C@H]1CC[C@@H](CCn2cc(-c3ccccn3)nn2)O[C@@H]1CO)c1ccncc1 | i
C[C@H]1CN([C@@H](C)CO)C(=O)Cc2cc(NC(=O)Nc3ccc(C(F)(F)F)cc3)ccc2O[C@H]1CN(C)C(=O)NC1CCCCC1 | i
CCCCOCCCNC(=O)C[C@H]1C[C@@]2(C(=O)OC)C(=C[C@H](C(C)C)O[C@@H]2C2CC2)N(Cc2ccccc2)C1=O | i
C[C@@H]1CN([C@@H](C)CO)C(=O)Cc2cc(N(C)C)ccc2O[C@H]1CN(C)Cc1ccc(-c2ccccc2)cc1 | i
C[C@H]1CN([C@@H](C)CO)C(=O)Cc2cc(NC(=O)CCCN(C)C)ccc2O[C@@H]1CN(C)C(=O)NC1CCCCC1 | i

Exported field by field: part of the list above
C[C@@H]1CN([C@@H](C)CO)C(=O)c2cc(NC(=O)CCCCCC(=O)Nc3ccccc3N)ccc2O[C@@H](C)CCCCO[C@@H]1CN(C)C(=O)Nc1ccc(C(F)(F)F)cc1
  FGF22 binding: i

C[C@@H]1CCCCO[C@H](CN(C)C(=O)c2ccncc2)[C@H](C)CN([C@H](C)CO)C(=O)c2cc(NS(=O)(=O)c3ccc(Cl)cc3)ccc2O1
  FGF22 binding: i

COc1ccc(NC(=O)Nc2ccc3c(c2)CC(=O)N([C@H](C)CO)C[C@H](C)[C@H](CN(C)Cc2ccc(Cl)c(Cl)c2)O3)cc1
  FGF22 binding: i

Retrieved by structure from the list above (4):
SMILES | FGF22 binding
C[C@H]1CN([C@@H](C)CO)C(=O)c2cc(NS(=O)(=O)c3ccc(F)cc3)ccc2O[C@H]1CN(C)S(=O)(=O)c1ccc(Cl)cc1 | i
C[C@H]1CN([C@@H](C)CO)C(=O)Cc2cc(NC(=O)CCCN(C)C)ccc2O[C@@H]1CN(C)C(=O)NC1CCCCC1 | i
C[C@H](CO)N1C[C@H](C)[C@@H](CN(C)CC2CCCCC2)Oc2ccc(NS(=O)(=O)c3cn(C)cn3)cc2C1=O | i
C[C@H]1CN([C@@H](C)CO)C(=O)c2cc(NC(=O)C3CCCCC3)ccc2O[C@@H]1CN(C)S(=O)(=O)c1cn(C)cn1 | i

The listing continues.
SMILES | FGF22 binding
CN1c2ccc(Br)cc2[C@H]2[C@H](CCN2C(=O)C2CC2)[C@@H]1CO | i
C[C@H](CO)N1C[C@H](C)[C@H](CN(C)Cc2cccc(C(F)(F)F)c2)Oc2ncc(-c3ccccc3)cc2C1=O | i
CO[C@H]1CN(C)C(=O)c2cc(NS(=O)(=O)c3cccc(F)c3)ccc2OC[C@H](C)N(Cc2cc(F)ccc2F)C[C@H]1C | i
CCCC(=O)Nc1ccc2c(c1)C(=O)N(C)[C@H]1CC[C@@H](CC(=O)N3CCCCC3)O[C@@H]1CO2 | i
CCCN(C)C[C@H]1OCCCC[C@H](C)Oc2ccc(NC(=O)C3CCCCC3)cc2C(=O)N([C@H](C)CO)C[C@H]1C | i
CC(C)NC(=O)NCC[C@H]1CC[C@@H](NC(=O)Nc2ccccc2)[C@H](CO)O1 | i
C[C@@H]1CN([C@H](C)CO)C(=O)c2cc(C#C[C@@H](C)O)cnc2O[C@@H]1CN(C)C(=O)c1ccccc1 | i
Cc1noc(C)c1S(=O)(=O)Nc1ccc2c(c1)C(=O)N([C@@H](C)CO)C[C@H](C)[C@H](CN(C)S(C)(=O)=O)O2 | i
COCC(=O)Nc1ccc2c(c1)[C@@H]1C[C@@H](CC(=O)NCCc3ccccc3)O[C@@H](CO)[C@@H]1O2 | i
CCNC(=O)[C@H]1[C@H](CO)[C@H]2Cn3c(cccc3=O)[C@@H]1N2C(=O)C1CCC1 | i
CS(=O)(=O)N1[C@@H](C#N)[C@H](c2ccc(C#Cc3cccc(F)c3)cc2)[C@@H]1CO | i
C[C@@H]1CCCCO[C@H](CN(C)S(C)(=O)=O)[C@@H](C)CN([C@H](C)CO)C(=O)c2cc(NC(=O)Nc3ccccc3)ccc2O1 | i
CO[C@@H]1CN(C)C(=O)c2cc(NC(=O)C3CCCC3)ccc2OC[C@@H](C)N(C)C[C@H]1C | i
O=C(c1cccc(F)c1)N1CC[C@@H]2[C@@H](CO)Nc3ccc(-c4ccc(F)cc4)cc3[C@@H]21 | i
CCNC(=O)[C@@H]1[C@@H](CO)[C@@H]2Cn3c(ccc(-c4ccccc4F)c3=O)[C@H]1N2CC1CC1 | i
C[C@@H]1CN([C@H](C)CO)C(=O)c2cc(NC(=O)CCN3CCOCC3)ccc2O[C@@H]1CN(C)C | i
N#C[C@H]1[C@@H](c2ccc(-c3cccnc3)cc2)[C@H](CO)N1C(=O)C1CC1 | i
CO[C@H]1CN(C)C(=O)c2cc(NS(=O)(=O)c3ccc(Oc4ccccc4)cc3)ccc2OC[C@@H](C)NC[C@@H]1C | i
C[C@H](NC(=O)C[C@@H]1C[C@@H]2c3cc(N(C)C)ccc3O[C@@H]2[C@H](CO)O1)c1ccccc1 | i
CC1=N/C(=C\c2ccc([N+](=O)[O-])cc2)C(=O)N1c1ccc(C)c(Cl)c1 | i
COc1ccc(NC(=O)N(C)C[C@H]2Oc3c(NC(=O)Nc4ccc5c(c4)OCO5)cccc3C(=O)N([C@H](C)CO)C[C@H]2C)cc1 | i
CCCN1[C@@H]2c3ccc(-c4ccccc4F)c(=O)n3C[C@H]1[C@H](CO)[C@H]2C(=O)NCC | i
C[C@@H]1CN([C@H](C)CO)C(=O)c2cc(NC(=O)c3ccccc3)ccc2O[C@@H](C)CCCCO[C@@H]1CN(C)C(=O)c1ccncc1 | i
COCC(=O)N1C[C@H](C)[C@@H](OC)CN(C)C(=O)c2ccc(NC(=O)NC(C)C)cc2OC[C@H]1C | i
CCC(=O)N1[C@@H]2CN(S(=O)(=O)c3ccc(F)cc3)c3ccccc3[C@@H]2[C@@H]1CO | i
SMILES | FGF22 binding
C[C@H]1CN([C@@H](C)CO)C(=O)Cc2cc(NC(=O)Nc3ccc(C(F)(F)F)cc3)ccc2O[C@H]1CN(C)S(=O)(=O)c1cccs1 | i
C/C=C/c1ccc2c(c1)O[C@H](CN(C)Cc1cccc(F)c1)[C@@H](C)CN([C@H](C)CO)S2(=O)=O | i
COc1ccccc1S(=O)(=O)N[C@H]1CC[C@H](CCn2cc(C3CCCC3)nn2)O[C@@H]1CO | i
C[C@H](CO)N1C[C@H](C)[C@H](CN(C)Cc2ccccn2)Oc2ncc(Br)cc2C1=O | i
CN(C)C(=O)C[C@@H]1CC[C@H](NC(=O)C2CCOCC2)[C@@H](CO)O1 | i
CCCNC(=O)N[C@@H]1CC[C@H](CCn2cc(C3CCCCC3)nn2)O[C@@H]1CO | i
COc1ccc2c3c(n(C)c2c1)[C@@H](CO)N(C(=O)Nc1ccc(F)cc1)CC31CN(CC2CCOCC2)C1 | i

Only part of the results is shown. The share of hits here may be higher or lower than overall.
